Source: PubChem
CtBP-E1A inh – inhibitors of CtBP/E1A interaction; AlphaScreen GST-E1A/His-CtBP binding, 1536-well; stronger effect = lower value; control for the full effect not named in the record; activity change, % (concentration not given with the values); hit rate 0.49% among 340,000; in the data active means activity change below about -65%; inconclusive means about -30% to -65%; inactive means above about -30%; also: % is scaled to controls: 0 for no effect and ±100 for the full control effect
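Protein mix (5X: 125 nM each GST-E1A, His-CtBP) was incubated with pinned compound 2 h at 37 deg C in dark, in 50 mM Tris pH 8.0 buffer with 300 mM NaCl. Glutathione donor and nickel acceptor beads followed; AlphaScreen signal read after 1 h.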
PINK1 expr mod – changes PINK1 expression | hit rate 0.2% among 410,000 | AID 624263 | Potency, µM (titrated, usually from 76.6 µM), without a hit: at the highest dose activation (PINK1 increase), usual class: activators | PINK1 immunofluorescence, high-content cytometry, 24 h; active = well fitted activation curve with a large enough effect; inconclusive = small, poorly fitted or top-dose-only effect; inactive = flat fitted curve, though single readings scatter; cell line not stated here;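 also: potency is read from the fitted curve at half-maximal effect; % of control where 0% means no effect; nearly all actives have a fitted effect of over 65% in size; a mitochondrial uncoupler was the plate control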
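Stable cell line treated 24 h with compounds at 5 concentrations (CCCP controls), then fixed and immunostained for PINK1 plus nuclear and cell stains; PINK1 immunofluorescence quantified by laser-scanning microplate cytometry.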
TRPML1 agonist – activates the human TRPML1 channel; Q9GZU1; activation, % (test concentration not listed); TRPML1-expressing cells, Ca2+ dye fluorescence, FDSS; host cell line not named in the record; reference of the full effect not given here; AID 624414; hit rate 0.12% among 410,000; in the data active = activation above about 50%; inconclusive = about 30% to 50%; inactive = below about 30%; also: 0% is about no effect; the text of the record puts the active cut at 80%
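TRPML1-DL cells, Tet-induced overnight (~16 h, 37 degrees C), loaded 45-90 min at room temperature with Ca8 no-wash calcium dye plus quencher. FDSS fluorescence: 10 s baseline, compound pin-transfer, 110 s agonist read, then EC80 54-4 (4uM final) and 110 s antagonist read.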
Six1-Eya2 inh – inhibitors of human Six1/Eya2 interaction; AID 651725; activity change, % (test concentration not listed); Q15475+O00167; AlphaScreen GST-Six1/His-Eya2 binding, biochemical; stronger effect = lower value; control for the full effect not named in the record; hit rate 0.56% among 360,000; in the data active = activity change below about -65%; inconclusive = about -30% to -65%; inactive = above about -30%; also: % is scaled to controls: 0 for no effect and ±100 for the full control effect; compound concentration not given in the record
Target sequence (O00167 whole entry, looked up): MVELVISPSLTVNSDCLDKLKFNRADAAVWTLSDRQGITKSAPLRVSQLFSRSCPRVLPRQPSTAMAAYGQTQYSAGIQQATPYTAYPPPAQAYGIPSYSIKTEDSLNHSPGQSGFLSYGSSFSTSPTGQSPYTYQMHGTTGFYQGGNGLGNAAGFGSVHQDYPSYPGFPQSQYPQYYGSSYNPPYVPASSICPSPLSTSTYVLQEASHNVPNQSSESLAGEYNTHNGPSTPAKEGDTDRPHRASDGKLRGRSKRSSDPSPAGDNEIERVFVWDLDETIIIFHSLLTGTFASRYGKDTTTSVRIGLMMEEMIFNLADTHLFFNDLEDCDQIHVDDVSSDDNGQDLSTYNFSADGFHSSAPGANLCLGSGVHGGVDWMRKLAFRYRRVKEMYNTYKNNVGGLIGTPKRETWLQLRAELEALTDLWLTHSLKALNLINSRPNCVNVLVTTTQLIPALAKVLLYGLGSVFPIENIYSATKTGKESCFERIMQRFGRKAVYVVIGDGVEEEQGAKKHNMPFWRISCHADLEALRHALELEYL
Target sequence (Q15475 whole entry, looked up): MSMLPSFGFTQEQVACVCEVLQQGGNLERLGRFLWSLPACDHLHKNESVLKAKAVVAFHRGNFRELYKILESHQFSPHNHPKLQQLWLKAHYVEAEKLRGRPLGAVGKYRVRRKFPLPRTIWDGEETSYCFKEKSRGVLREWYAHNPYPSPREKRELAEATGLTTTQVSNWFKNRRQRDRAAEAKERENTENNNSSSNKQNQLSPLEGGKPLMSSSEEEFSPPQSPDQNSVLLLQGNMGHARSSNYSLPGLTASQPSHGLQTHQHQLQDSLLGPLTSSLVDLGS
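AlphaScreen with GST-Six1 and His-Eya2 (5X mix: 250 nM and 500 nM), glutathione donor and nickel acceptor beads; buffer 50 mM Tris pH 8.0, 300 mM NaCl, 1 mM TCEP; 1 h at 37 C in the dark.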
Numbers without * were called inactive; u = inconclusive; x = not tested or not shown. Some of the compounds tested. The share of hits here may be higher or lower than overall.

SMILES | CtBP-E1A inh | PINK1 expr mod | TRPML1 agonist | Six1-Eya2 inh
Cc1cccc(NC(=O)c2c(C)cc(C)nc2SCC(=O)Nc2c(C)cc(C)cc2C)c1 | x | 8.5% | 2.5 | x
CCc1ccc(OCC(=O)N(Cc2ccco2)Cc2ccccc2Cl)cc1 | x | u | 2.2 | x
Cc1c2cnn(CC(=O)NC(C)C)c(=O)c2c(C)n1Cc1ccccc1Cl | x | -1.8% | -1.0 | x
O=C1CN(C(=O)COc2ccc(Cl)cc2Cl)C(c2ccc(F)cc2)c2cc(F)ccc2N1 (stereo not drawn) | x | 0.3% | 1.5 | x
Cc1ccc(NC(=O)CN2C(=O)COc3ccc(S(=O)(=O)NC4CCCC4)cc32)c(Cl)c1 | x | 1.3% | 1.4 | x
CC1CCc2onc(C(=O)N3CCN(c4ccc(F)cc4)CC3)c2C1 (stereo not drawn) | x | u | 1.9 | x
O=C(COc1ccc(Cl)cc1)Nc1ccc(-c2nc3cc(Cl)ccc3o2)c(O)c1 | x | 0.8% | 1.9 | x
COc1cc(NC(=O)CC2C(=O)N(c3cccc(C)c3)C(=O)N2Cc2ccco2)cc(OC)c1 (stereo not drawn) | x | 3.1% | 2.0 | x
O=S(=O)(c1ccc2nc(Nc3cccc(F)c3)ccc2c1)N1CCCC1 | x | 16% | 5.2 | x
CCCc1nn2c(=O)cc(COC(=O)c3ccc4c(c3)OCO4)nc2s1 | x | -0.2% | -0.7 | x
CC(C)(C)c1ccc(OCC(=O)N2CCC(c3nc4ccccc4s3)CC2)cc1 | x | 0.7% | -1.1 | x
COc1cccc(CNC(=O)c2ccc(-c3nc(COc4ccccc4)c(C)o3)cc2)c1 | x | 1.0% | 3.9 | x
CC(C)c1ccc(NC(=O)CN2C(=O)COc3ccc(S(=O)(=O)Nc4ccccc4)cc32)cc1 | x | 0.0% | 0.6 | x
CCOC(=O)c1c(NC(=O)/C=C/c2ccc(OCC)c(OC)c2)sc2c1CCC2 | x | 0.5% | 4.1 | x
CC1N=C2c3ccccc3N=C(SCC(=O)NCCc3ccc(Cl)cc3)N2C1=O (stereo not drawn) | x | -1.1% | 0.1 | x
CCOc1ccc(N2CC(C)Cn3c2nc2c3c(=O)n(Cc3c(F)cccc3Cl)c(=O)n2C)cc1 (stereo not drawn) | x | -0.4% | 1.2 | x
Cc1cccc2sc(N(Cc3cccnc3)C(=O)CCOc3ccccc3)nc12 | x | 1.9% | 2.2 | x
Cc1oc2cc3oc(=O)c(CCC(=O)NCCc4ccccc4F)c(C)c3cc2c1C | x | 1.9% | -0.1 | x
COc1ccccc1C(=O)NC1(C(F)(F)F)C(=O)Nc2c1c(=O)[nH]c(=O)n2CCc1ccccc1 (stereo not drawn) | x | 0.6% | 0.1 | x
CCn1c(C(=O)NCc2ccc(C)cc2)cc2sc(Cl)cc21 | x | 0.3% | 0.5 | x
Cc1ccccc1CSc1ncc(CO)n1Cc1ccc(F)cc1 | x | -4.3% | 0.1 | x
Cc1ccc2nc(N(Cc3cccnc3)C(=O)CCS(=O)(=O)c3ccccc3)sc2c1 | x | 3.8% | 1.7 | x
COc1ccc(/C=C/C(=O)Nc2ccc(Cl)cc2Cl)cc1 | x | 8.2% | 2.5 | x
COc1ccccc1NC(=O)c1ncoc1-c1ccco1 | x | 2.6% | 2.3 | x
COc1cccc(C2C(=O)N(C3CCCCC3)CC(=O)N2CCc2ccc(OC)c(OC)c2)c1 (stereo not drawn) | x | 1.0% | -0.8 | x
The listing continues.
SMILES | CtBP-E1A inh | PINK1 expr mod | TRPML1 agonist | Six1-Eya2 inh
Cc1ccc(S(=O)(=O)c2cn(CC(=O)Nc3ccccc3C)c3cc4c(cc3c2=O)OCO4)cc1 | x | 0.3% | -1.1 | x
CC(=O)c1cccc(NC(=O)CSc2nnc3ccc(-c4ccc(Cl)cc4)nn23)c1 | x | 11% | 0.4 | x
NS(=O)(=O)c1ccc(NC(=O)c2csnn2)cc1 | x | -0.7% | -0.1 | x
CCOc1ccc(NC(=O)CN2CCN(Cc3ccccc3)S2(=O)=O)cc1 | x | 0.5% | 1.0 | x
CC(C)c1ccc(NC(c2nnc(-c3ccccc3)o2)c2ccc(F)cc2Cl)cc1 (stereo not drawn) | x | 21% | 1.7 | x
CCOC(=O)C1CCCN(S(=O)(=O)c2ccc3c(c2)CCN3C(=O)CC)C1 (stereo not drawn) | x | 1.5% | -1.0 | x
Cc1ccc2nc(-c3ccc(Cl)c(NC(=O)c4cccnc4)c3)oc2c1 | x | 2.5% | 0.9 | x
CCOC(=O)c1sc2ccccc2c1S(=O)(=O)N1CCN(c2cc(C)ccc2C)CC1 | x | 4.2% | 1.2 | x
Cc1cc2oc(C(=O)Nc3ccc(S(=O)(=O)N(C)c4ccccc4)cc3)cc(=O)c2cc1C | x | -0.7% | -0.9 | x
COc1cccc(C(C(=O)NCc2ccccc2)N(C(=O)Cn2nnc3ccccc32)c2cccc(C(C)=O)c2)c1 (stereo not drawn) | x | 1.0% | 0.6 | x
CCOC(=O)c1c(C)[nH]c(CCC(=O)Nc2cc(Cl)ccc2OC)c1C | x | 0.3% | 3.9 | x
CCOc1cc2[nH]c(=O)n(CCCC(=O)N3CCN(c4ccc(OC)cc4)CC3)c(=O)c2cc1OCC | x | 1.0% | 0.9 | x
CCOC(=O)C1CCN(C(=O)c2cnn(-c3ccc(F)cc3)c2-n2cccc2)CC1 | x | -0.6% | 3.3 | x
Cc1ccc(CNC(C)c2ccccc2)s1 (stereo not drawn) | x | -0.1% | 0.3 | x
COc1ccccc1NC(=O)Cn1c(=O)c(CNc2ccc(C)cc2)cc2cc3c(cc21)OCCO3 | x | -0.6% | 2.4 | x
CC(=O)c1cccc(NC(=O)CSc2ncc3c(n2)-c2cc(Cl)ccc2N(Cc2ccccc2)S3(=O)=O)c1 | x | -0.9% | -0.2 | x
Cc1ccc(-n2ncc3c(N4CCCCC4)ncnc32)cc1 | x | 4.5% | 0.2 | x
O=C(COc1ccc(Cl)cc1)NCC(c1ccco1)S(=O)(=O)c1ccccc1 (stereo not drawn) | x | 0.1% | 2.6 | x
COc1ccc(-n2cc(C(=O)N(C)c3cc(C)ccc3OC)c3ccccc3c2=O)cc1 | x | 3.5% | 0.6 | x
CCC(Sc1nc2n[nH]c(C)c2c(=N)n1-c1ccccc1Cl)C(=O)N(CC)CC (stereo not drawn) | x | 1.2% | 2.1 | x
COc1ccc(NC(=O)C(=O)NCCc2ccccc2)cc1OC | x | -1.3% | -0.1 | x
CCCCNC(=O)c1nc(-c2cnc(C)cn2)oc1-c1ccc(Cl)cc1 | 14 | x | x | 4
CC(=O)C1CN(S(=O)(=O)c2ccc(C)cc2)C(c2ccccc2)CC1C (stereo not drawn) | 2 | x | x | 7
CCC(c1nc2ccccc2[nH]1)n1c(-c2cccnc2)nc2ccccc21 (stereo not drawn) | 46 | x | x | 40
O=C(Nc1ccc2c(c1)OCCO2)C(c1ccccc1F)n1c(=O)c(-c2cc3ccccc3[nH]2)nc2ccccc21 (stereo not drawn) | 19 | x | x | 23
Following part:
SMILES | CtBP-E1A inh | PINK1 expr mod | TRPML1 agonist | Six1-Eya2 inh
CCOC(=O)C1=CC[C@@H](c2ccccc2)N(S(=O)(=O)c2ccc(C)cc2)[C@@H]1C#N | 5 | x | x | 10
Cc1ccc(S(=O)(=O)/C=C2\OCc3ccccc32)cc1 | 2 | x | x | 3
O=C(NCc1ccccc1)C(c1ccccc1)n1c(=O)c(-c2cc3ccccc3[nH]2)nc2ccccc21 (stereo not drawn) | 26 | x | x | 43
CCCCCNC(=O)C(C1CC1)n1c(=O)c(-c2cc3ccccc3[nH]2)nc2ccccc21 (stereo not drawn) | 0 | x | x | 71
Cc1ccc(S(=O)(=O)Nc2ccccc2[N+](=O)[O-])cc1 | -3 | x | x | -2
CC(=O)[C@H]1CC[C@@H](c2ccccc2)N(S(=O)(=O)c2ccc(C)cc2)C1 | -1 | x | x | 4
O=C(NC1CCCCC1)C(C1CC1)n1c(=O)c(-c2ccco2)nc2ccccc21 (stereo not drawn) | -1 | x | x | 3
O=C(Nc1ccc(F)cc1)N[C@@H]1CC[C@@H](CCn2cc(-c3ccc(F)cc3)nn2)O[C@@H]1CO | 3 | x | x | -8
CCC(C(=O)NC(C)(C)C)n1c(-c2cccc(NC(C)=O)c2)nc2ccccc21 (stereo not drawn) | -12 | x | x | 12
Cc1cccc(C)c1NC(=O)C(c1ccc(C(F)(F)F)cc1)n1c(=O)c(-c2ccco2)nc2ccccc21 (stereo not drawn) | 9 | x | x | 0
COc1ccc(C(=O)C(=O)N2CCN(c3ccc(C)cc3)CC2)cc1OC | -1 | x | x | -7
O=C(NC1CCCCC1)C(c1ccccc1)n1c(=O)c(-c2cc3ccccc3[nH]2)nc2ccccc21 (stereo not drawn) | 10 | x | x | 60
COC(=O)[C@@]12C[C@@H](CC(=O)NCCCN3CCCC3=O)C(=O)N(Cc3ccccc3)C1=CCC(C)(C)C2 | 2 | x | x | -7
COCC(=O)N[C@H]1C=C[C@@H](CC(=O)NCc2ccccc2OC)O[C@@H]1CO | 4 | x | x | 12
CCCNC(=O)C[C@H]1CC[C@@H]2[C@H](COC[C@@H](O)CN2C(=O)c2ccccn2)O1 | 4 | x | x | 10
CCOC(=O)N1CCN(C(=O)C[C@@H]2C[C@@]3(C(=O)OCC)CCCC=C3N(CCC3=CCCCC3)C2=O)CC1 | -2 | x | x | -2
O=C1Nc2ccccc2-n2nnnc2C1N1CCN(C(=O)c2ccco2)CC1 (stereo not drawn) | -17 | x | x | 8
CC1(C(=O)Nc2ccc3c(c2)OCCO3)CN(S(C)(=O)=O)CC(=O)N1CCc1ccc(O)cc1 (stereo not drawn) | -2 | x | x | -3
CCCCNC(=O)c1nc(-c2cccs2)oc1-c1ccc(Cl)cc1 | 9 | x | x | 2
Cc1ccc(S(=O)(=O)N2C3CCCCC3O[C@H]2CC(=O)c2cccs2)cc1 (stereo partly drawn) | 3 | x | x | 3
CC(C)OC(=O)CC(=O)CC(O)c1cccc([N+](=O)[O-])c1 (stereo not drawn) | 10 | x | x | -4
O=C(C[C@H]1CC[C@H]2[C@@H](COC[C@@H](O)CN2Cc2cc(F)ccc2F)O1)NCc1ccc(Cl)cc1 | 2 | x | x | -2
COC(=O)[C@@]12C[C@@H](CC(=O)NCc3ccccc3)C(=O)N(Cc3ccco3)C1=CCC(C)(C)C2 | -1 | x | x | -7
CCCCNC(=O)C(NC(=O)c1ccc(C)cc1)C(=O)c1ccccc1 (stereo not drawn) | 4 | x | x | 2
O=C(Nc1ccc(F)cc1)C(c1ccccc1)N1CCN(c2cccc(C(F)(F)F)n2)CC1 (stereo not drawn) | -20 | x | x | 3
(further entries)
SMILES | CtBP-E1A inh | PINK1 expr mod | TRPML1 agonist | Six1-Eya2 inh
CCCCOCCCNC(=O)C[C@@H]1C[C@@]2(C(=O)OC)CC(C)(C)CC=C2N(Cc2cccc3ccccc23)C1=O | -16 | x | x | -1
CC(C)NC(=O)C1(C)CSCC(=O)N1C1CC1 (stereo not drawn) | 2 | x | x | 28
COC(=O)C[C@H]1C=C[C@H](NC(=O)c2ccccn2)[C@@H](CO)O1 | -22 | x | x | 4
COC(=O)[C@@]12C[C@@H](CC(=O)N3CCCCC3)C(=O)N(Cc3ccco3)C1=CCC(C)(C)C2 | 5 | x | x | -7
CC1(C(=O)Nc2ccc3c(c2)OCCO3)CN(S(C)(=O)=O)CC(=O)N1Cc1ccco1 (stereo not drawn) | -11 | x | x | 5
CC(C)OC(=O)/C=C1\C[C@@H](c2ccccc2C(F)(F)F)O[C@@H](c2ccccc2C(F)(F)F)O1 | 9 | x | x | -10

Exported with values under each structure: part of the list above
The line under a structure holds: CtBP-E1A inh	PINK1 expr mod	TRPML1 agonist	Six1-Eya2 inh
Cc1cccc(C)c1NC(=O)C(c1ccc(C(F)(F)F)cc1)n1c(=O)c(-c2ccco2)nc2ccccc21 (stereo not drawn)
 : 9	x	x	0
COc1ccc(C(=O)C(=O)N2CCN(c3ccc(C)cc3)CC2)cc1OC
 : -1	x	x	-7

In the list so far, these have a tert-butyl group.
SMILES | CtBP-E1A inh | PINK1 expr mod | TRPML1 agonist | Six1-Eya2 inh
CC(C)(C)c1ccc(OCC(=O)N2CCC(c3nc4ccccc4s3)CC2)cc1 | x | 0.7% | -1.1 | x
CCC(C(=O)NC(C)(C)C)n1c(-c2cccc(NC(C)=O)c2)nc2ccccc21 (stereo not drawn) | -12 | x | x | 12
